# KAT2A inh – GCN5L2 (KAT2A) acetyltransferase inhibition. Potency, µM (doses to about 58.9 µM), for inactives: at the highest dose activity change, negative = inhibition, most hits filed as inhibitors. GCN5L2 HAT assay, ThioGlo1 CoA-SH fluorescence. Q92830. hit rate 0.21% among 390,000; active means well fitted inhibition curve with a large enough effect; inconclusive means small, poorly fitted or top-dose-only effect, or another doubt; inactive means no such curve, though single readings can be large or run the other way
# Target sequence (Q92830 whole entry, looked up): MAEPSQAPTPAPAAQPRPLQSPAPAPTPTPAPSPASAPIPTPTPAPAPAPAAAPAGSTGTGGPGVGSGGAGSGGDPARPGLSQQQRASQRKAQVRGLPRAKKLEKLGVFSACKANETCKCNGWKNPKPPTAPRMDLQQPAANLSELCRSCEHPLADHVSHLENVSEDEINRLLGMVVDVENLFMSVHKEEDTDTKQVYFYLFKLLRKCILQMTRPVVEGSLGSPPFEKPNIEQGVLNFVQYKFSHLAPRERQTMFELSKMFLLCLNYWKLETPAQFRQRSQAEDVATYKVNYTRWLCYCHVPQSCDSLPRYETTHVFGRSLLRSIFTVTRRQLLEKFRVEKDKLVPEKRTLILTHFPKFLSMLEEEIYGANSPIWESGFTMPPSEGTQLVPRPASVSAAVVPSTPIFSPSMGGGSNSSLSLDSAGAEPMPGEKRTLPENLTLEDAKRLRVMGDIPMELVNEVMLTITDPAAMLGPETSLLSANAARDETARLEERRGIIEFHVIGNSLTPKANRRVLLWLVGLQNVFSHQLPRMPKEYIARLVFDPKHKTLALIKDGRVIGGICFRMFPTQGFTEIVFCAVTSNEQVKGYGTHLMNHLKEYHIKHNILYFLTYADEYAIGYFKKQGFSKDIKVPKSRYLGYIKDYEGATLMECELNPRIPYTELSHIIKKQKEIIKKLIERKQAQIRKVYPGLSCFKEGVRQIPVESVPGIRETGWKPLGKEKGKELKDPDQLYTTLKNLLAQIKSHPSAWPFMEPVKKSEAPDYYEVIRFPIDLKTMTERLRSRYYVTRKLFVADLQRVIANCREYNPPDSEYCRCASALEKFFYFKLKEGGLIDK
#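 GCN5L2 (20 nM) in 50mM HEPES pH 7.5, 0.1mM EDTA, 0.01% Tween-20 preincubated 15 min with compounds at room temperature. Reaction started with H3(1-25) 75uM, acetyl-CoA 70uM, ThioGlo1 50uM; CoA-thiol fluorescence (Ex340/Em540) read at 0 and 20 min.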
# Numbers without * were called inactive; ? = inconclusive; [ ] = remark or other dose. On the % scale 0 is the no-effect control and ±100 the full control effect; potency means the concentration at half of the fitted maximal effect. This is a subset; most or all hits stand in other tables.
no.	SMILES	KAT2A inh
1	COc1ccc(Cl)cc1NC(=O)CN(C)C(=O)c1cc2c(s1)CCC(C)C2 (stereo unspecified)	-16.1%
2	CC1CCC2(CC1)NC(=O)N(CC(=O)NCCc1c[nH]c3ccccc13)C2=O (stereo unspecified)	3.4%
3	O=C(Nc1sc2c(c1C(=O)c1ccccc1)CCCC2)c1cccnc1	1.5%
4	COc1ccccc1N1CCN(C(=O)c2c(C)oc3ncn(C)c(=O)c23)CC1	14.2%
5	O=C(CN1CCOCCOCCOCCOCC1)Nc1ccccc1	-5.6%
6	COc1ccc(Cc2nc(-c3ccc(-n4cccc4)cc3)no2)cc1OC	-2.9%
7	COc1cc(SC)ccc1C(=O)NCCCn1ccnc1	1.0%
8	CC(=O)c1sc(NC(=O)c2cccc(N3C(=O)CCC3=O)c2)nc1-c1ccccc1	-4.2%
9	COc1cc(C(=O)NCc2nnc(SCC(=O)NCc3ccco3)o2)cc(OC)c1OC	-24.1%
10	CCC(=O)N1CCN(c2ccc(NC(=O)c3ccccc3)cc2)CC1	-1.6%
11	Cc1cc(=O)[nH]n(CCO)c1=O	-5.7%
12	O=C(Nc1ccc(F)cc1)c1oc2ccccc2c1NC(=O)C1CC1	-10.9%
13	N#CCC(=N)N1CCN(c2cccc(Cl)c2)CC1	-2.7%
14	Clc1ccc(OCc2cc(-c3ccccc3)no2)c(Cl)c1	-11.8%
15	O=C(c1c(F)cccc1F)N1CCCC1	-6.1%
16	O=C(Oc1ccc(C(=S)N2CCOCC2)cc1)c1cccc([N+](=O)[O-])c1	-11.2%
17	O=C(Nc1ccc2oc(-c3ccccc3)nc2c1)c1cc(-n2cnnc2)ccc1Cl	0.3%
18	O=C(Oc1ccccc1)N1CCN(c2ccc(F)cc2)CC1	-1.6%
19	CCOC(=O)c1ccc(-n2[nH]c(-c3ccccc3)cc2=O)cc1	?
20	CC(=O)N(C)c1ccc(NC(=O)C(F)(F)F)cc1	0.1%
21	CCOc1ccc(-c2nnn(CC(=O)Nc3ccccc3OC)n2)cc1OCC	-5.6%
22	CN(CC(=O)Nc1ccc(N2CCOCC2)cc1)CC(=O)Nc1ccc([N+](=O)[O-])cc1Br	-3.6%
23	c1ccc(-c2cc(N3CCCCC3)c3ccccc3n2)cc1	-10.0%
24	O=C1COc2ccc(C(=O)COC(=O)C3CCN(S(=O)(=O)c4cccs4)CC3)cc2N1	-12.2%
25	CCc1ccc(NS(=O)(=O)c2c(C(=O)N3CCCCCC3)c(C)n(C)c2C)cc1	-8.1%
26	CN(C)S(=O)(=O)c1cccc(NC(=S)NCCc2ccccn2)c1	4.5%
27	Cc1ccc(N2CCN(C(=S)Nc3ccc(Cl)cc3)CC2)cc1	0.7%
28	COC(=O)c1cn(NC(=O)CCC2CCCC2)c(=O)c2ccccc12	-10.8%
29	COC(=O)CCN(c1ccccc1)S(=O)(=O)c1ccc(OC)cc1	-4.9%
30	Cc1ccc(C)c(NC(=O)COc2cccc3c2CCN(Cc2ccccc2C)C3=O)c1	-2.2%
31	O=C(COc1ccccc1F)Nc1ccc(-c2nc3ccccc3s2)cc1	-6.1%
32	O=C(CSc1nccc(-c2cccs2)n1)Nc1ccc(Cl)cc1	-9.4%
33	Cn1c(-c2ccc3c(c2)OCO3)cnc1N	-14.1%
34	COc1ccc(CNC(=O)COc2ccc(C)nc2[N+](=O)[O-])cc1	-0.8%
35	CCc1sc(C(=O)N2CCN(CC(=O)Nc3cccc(F)c3)CC2)cc1C	-2.7%
36	CCOC(=O)c1sc(=S)n(-c2ccc(C)cc2)c1SC	2.0%
37	CCN(CC)S(=O)(=O)c1ccc2c(c1)N(CC(=O)Nc1cccc(C#N)c1)C(=O)CO2	-3.1%
38	O=S(=O)(c1cccc2c(I)cccc12)N1CCCNCC1	?
39	CCC(C)c1ccccc1OCCn1ccnc1 (stereo unspecified)	-2.2%
40	Cc1c(Cl)cccc1NC(=O)CSc1cc(-c2ccccc2)ncn1	0.6%
41	CC(C)COc1ccc(C(=O)OCC(=O)NCc2cccs2)cc1	-4.1%
42	O=C(O)c1cc(S(=O)(=O)N2CCN(C(=O)c3ccco3)CC2)c(Cl)cc1Cl	2.8%
43	O=C(Nc1ccccn1)c1ccc2c(=O)n3c(nc2c1)CCCCC3	-2.1%
44	CC(Sc1nnc(C2CC2)n1C1CC1)C(=O)N(C)Cc1cccc(F)c1 (stereo unspecified)	0.4%
45	CNC(=S)N1C2CCC1CC(NC(=O)NC13CC4CC(CC(C4)C1)C3)C2 (stereo unspecified)	-0.3%
46	COc1ccc(Cl)cc1NC(=O)CN(C)Cc1ccc(OC)c(OC)c1	-1.4%
47	CC(C)C1N=C2c3ccccc3N=C(SCC(=O)NCc3ccccc3Cl)N2C1=O (stereo unspecified)	0.2%
48	O=C(CCSc1ccc(Cl)cc1)NC12CC3CC(CC(C3)C1)C2	-5.0%
49	COc1cc(/C=C/C(=O)O)cc(S(=O)(=O)NC2CC2)c1OC	1.4%
50	CNc1cc(CS(=O)c2ccccc2)nc(-c2ccccc2)n1 (stereo unspecified)	?
51	O=C(CCCN1C(=O)CCC1=O)Nc1ccc2c(c1)OCCO2	-1.9%
52	CC(=O)Oc1c(S(=O)(=O)c2ccc(C)cc2)c(C)nn1-c1ccccc1	-0.8%
53	O=C(CSc1nc(-c2ccccc2)cc(C(F)(F)F)n1)c1cccc([N+](=O)[O-])c1	?
54	CCCc1cc(=O)oc2cc(C)cc(OCC(=O)NCCCN3CCCC3=O)c12	-11.3%
55	c1ccc(CCCc2nc(-c3ccccn3)no2)cc1	-3.0%
56	CCc1ccc(Oc2ncnc(N)c2[N+](=O)[O-])cc1	-5.3%
57	CCOc1ccc(OCC(=O)Nc2ccccc2N2CCCC2)cc1	-5.3%
58	S=C(Nc1ccccc1Cl)N(CCN1CCCCC1)Cc1ccco1	-1.3%
59	Cc1nn(-c2ccccc2)c(Cl)c1/C=N/N1CCN(c2ccccn2)CC1	-6.4%
60	COc1ccccc1/C=C/C=N/n1c(-c2ccccn2)n[nH]c1=S	-7.0%

# Next section (five carried over from the part before).
no.	SMILES	KAT2A inh
56	CCc1ccc(Oc2ncnc(N)c2[N+](=O)[O-])cc1	-5.3%
57	CCOc1ccc(OCC(=O)Nc2ccccc2N2CCCC2)cc1	-5.3%
58	S=C(Nc1ccccc1Cl)N(CCN1CCCCC1)Cc1ccco1	-1.3%
59	Cc1nn(-c2ccccc2)c(Cl)c1/C=N/N1CCN(c2ccccn2)CC1	-6.4%
60	COc1ccccc1/C=C/C=N/n1c(-c2ccccn2)n[nH]c1=S	-7.0%
61	O=C(CCNS(=O)(=O)c1ccc(Br)cc1)NCCCSc1ccccc1	-9.1%
62	CCc1ccc(N2CC(C(=O)NCC(C)(C)N3CCOCC3)CC2=O)cc1 (stereo unspecified)	-2.4%
63	CCOC(=O)c1ccc(NC(=O)CSc2nnc3c4ccccc4n(CC)c3n2)cc1	-5.4%
64	O=C(COc1ccc(Cl)cc1Cl)OCn1nnc2ccccc2c1=O	-3.2%
65	COc1ccccc1NC(=O)C1=C(C)Nc2ncnn2C1c1ccccn1 (stereo unspecified)	-4.6%
66	O=C(CN1C(=O)C2C3C=CC(C3)C2C1=O)N1CCc2ccccc2C1 (stereo unspecified)	-3.1%
67	O=C1CC[C@@H](CN(Cc2ccccn2)Cc2nc(Cc3cccc(C(F)(F)F)c3)no2)N1	13.8%
68	CCCc1nc2ccc(NC(=O)c3cccs3)cc2c(=O)n1Cc1ccc(Cl)cc1	-4.7%
69	COc1ccccc1C1/C(=C(\O)c2ccc3c(c2)OCCO3)C(=O)C(=O)N1CCCn1ccnc1 (stereo unspecified)	-9.6%
70	CCOC(=O)c1c(C)[nH]c(C=O)c1Cc1cccc(Cl)c1	-5.6%
71	CC1Sc2ccc(C(=O)OCc3ccccc3Cl)cc2NC1=O (stereo unspecified)	-1.5%
72	COCCNC(=O)c1nn(-c2ccc(C)cc2)c(=O)c2c1c1ccccc1n2C	-7.4%
73	CCOC(=O)Cn1nnc(-c2cccc(OC)c2)n1	-10.5%
74	CCC(C)[C@H](NC(=O)Nc1cccc(Br)c1)C(=O)OC (stereo partly specified)	4.4%
75	Cc1cc(=O)n(Cc2cccc(Cl)c2)c2c1c(C)nn2C	-1.8%
76	NNC(=O)c1nc(-c2ccccc2)cc(-c2ccccc2)n1	-8.7%
77	COc1ccccc1CNC(=O)CN1C(=O)NC2(CCCCCCC2)C1=O	-11.3%
78	COc1ccc(S(=O)(=O)Nc2ccc3c(c2)OCO3)cc1C	-3.3%
79	CN(CCC#N)C(=O)CSc1nc2scc(-c3ccccc3)c2c(=O)[nH]1	0.4%
80	COc1cccc(N2CCN(Cc3nc(N)nc(Nc4ccccc4)n3)CC2)c1	-1.1%
81	CC1CN(C(=O)COc2ccc3ccccc3c2Br)CC(C)O1 (stereo unspecified)	-1.1%
82	COc1ccc(OC)c(NC(=O)COC(=O)Cc2ccsc2)c1	0.4%
83	N#Cc1c(NC(=O)CSc2nnc(-c3ccncc3)n2CC2CCCO2)sc2c1CCCC2 (stereo unspecified)	1.0%
84	O=C(Cn1cnc2c(nnn2Cc2ccccc2)c1=O)N1CCCc2ccccc21	-1.1%
85	O=C(O)c1nn(CC(=O)N2CCN(S(=O)(=O)c3ccc(Cl)cc3)CC2)c(=O)c2ccccc12	-3.3%
86	O=C(CC1C(=O)NCCN1Cc1ccccn1)NCCc1ccccc1F (stereo unspecified)	1.4%
87	Cn1nc(C(=O)Nc2cccc(Cl)c2)cc1C(=O)Nc1cccc(Cl)c1	-1.5%
88	O=C(COC(=O)C1CCCCC1)Nc1ccc(N2CCCCC2)cc1	3.6%
89	O=C(c1ccco1)N1CCN(Cc2nnnn2C2CCCCC2)CC1	-4.7%
90	Cc1ccc(S(=O)(=O)N2CCC(C(=O)N3CCC[C@H]3C(=O)NCc3ccccc3)CC2)cc1	-2.9%
91	CS(=O)(=O)N(CC(=O)NCCSC1CCCCC1)c1ccc2c(c1)OCO2	-3.0%
92	O=C1c2ccccc2[C@@H]2C[C@@H](O)[C@H](Nc3cccc(Cl)n3)CCN12	-4.0%
93	CCC(=O)c1ccc(OCC(=O)Nc2cccc(S(=O)(=O)N(C)c3ccccc3)c2)cc1	-12.5%
94	Cc1cccc(NC(=O)Nc2ccc3c(c2)OCO3)n1	-15.1%
95	Cc1cc(NC(=O)CCC(=O)N(c2cccc(F)c2)C(C(=O)NC2CCCC2)c2ccccc2)no1 (stereo unspecified)	-3.0%
96	CCOc1ncccc1C(=O)N(C)CC(=O)Nc1ccc(C)cc1	-12.4%
97	O=C(Nc1ccccc1)c1cccc(N2C(=O)CCC2=O)c1	-3.8%
98	O=C(CCS(=O)(=O)c1ccccc1F)Nc1ccc(N2CCN(Cc3ccccc3)CC2)cc1	2.3%
99	CCN(CC)S(=O)(=O)c1ccc(C(=O)Oc2coc(CSc3nc(C)cc(C)n3)cc2=O)cc1	-7.0%
100	CC(C)c1ccc(NC(=O)C2C3C=CC4(O3)C2C(=O)N(CCN2CCOCC2)C4C(=O)NC2CCCCC2)cc1 (stereo unspecified)	-10.3%
101	CCC1(c2ccccc2)NC(=O)N(CC(=O)Nc2cccc(C#N)c2)C1=O (stereo unspecified)	0.1%
102	O=C(Nc1ncnc2sc3c(c12)CCCCC3)c1ccccc1	-8.2%
103	Cc1ccc(CSc2nc3ccccc3cc2C=O)cc1	117.3%[activator]
104	Cc1ccc2cc3c(NC(=O)CC(C)C)nn(C)c3nc2c1	-9.3%
105	O=C(COC(=O)C1=COCCO1)Nc1ccc(Oc2ccccc2)cc1	-0.1%
106	O=C(Nc1ccc(OC(F)(F)F)cc1)C1=NCCN1	-1.6%
107	CCC(C)(C)n1nnnc1C(c1ccccc1OC)N1CCN(C(=O)c2ccco2)CC1 (stereo unspecified)	-3.0%
108	O=C(COc1cccnc1[N+](=O)[O-])Nc1cc(S(=O)(=O)N2CCCCC2)ccc1Cl	-8.9%
109	CCOc1ccc(-c2c(C(=O)N/N=C/c3ccc(Cl)cc3)nnn2-c2nonc2N)cc1	-4.8%
110	c1ccc2occc2c1	-3.5%
111	Cc1ccccc1C(=O)NC1CCN(C(=O)Nc2ccc(F)cc2)CC1	-1.1%
112	Cc1nnc(SCC(=O)NC2CCCCCC2)n1N	-4.4%
113	Cc1cccc(NC(=O)COc2ccc(Br)cc2C)n1	-10.8%
114	CCCC1CC(CSC(=N)N)OC1=O (stereo unspecified)	-6.2%
115	COc1cc(SC)ccc1C(=O)NCCOc1ccc(C)c(C)c1	-5.0%
116	CN(c1cccc(Cl)c1)S(=O)(=O)c1cccc(C(=O)NCc2ccncc2)c1	-6.6%
117	CCN(CC)C(=O)CC(c1ccc(F)cc1)c1ccc(OC)cc1 (stereo unspecified)	0.7%
118	Cc1cc(-c2nnc(SCC(=O)Nc3ccc(S(N)(=O)=O)cc3)n2N)n[nH]1	0.0%
119	O=C(COc1ccc(Br)cc1)N/N=C1\SCC(=O)N1c1ccc(F)cc1	-2.5%
120	COC(=O)c1ccc(N=NNc2cccc(Br)c2)cc1	0.7%
121	CC(=O)Nc1ccc(NC(=O)C(C)OC(=O)c2ccc(S(=O)(=O)N3CCCCCC3)cc2)cc1 (stereo unspecified)	-1.6%
122	CCn1nc(C(=O)Nc2nc3ccccc3[nH]2)c2ccccc2c1=O	1.1%

# A second format for 2 compounds above:
117) CCN(CC)C(=O)CC(c1ccc(F)cc1)c1ccc(OC)cc1 (stereo unspecified)
  KAT2A inh: 0.7%
118) Cc1cc(-c2nnc(SCC(=O)Nc3ccc(S(N)(=O)=O)cc3)n2N)n[nH]1
  KAT2A inh: 0.0%

# Screens: PubChem, National Center for Advancing Translational Sciences (NCATS)
